Screens as filed in PubChem BioAssay.
Rango release inh: inhibition of RanGTP-driven Rango-importin beta dissociation; Biochemical FRET Rango-importin beta, RanGTP-induced dissociation; AID 540253; O95149+P62826; Potency, µM (titrated, usually from 46.1 µM), for the others: at the highest dose activity change, negative = inhibition; 340,000 compounds, 0.071% hits; active means falling FRET ratio curve, often poorly fitted, with flat reads before Ran was added; inconclusive means other falling curves, or compound fluorescence or quenching; inactive means flat or rising ratio curve;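 further: potency means the concentration at half of the fitted maximal effect; % of control where 0% means no effect; nearly all actives have a fitted effect of over 45% in size; -100% = wells without RanGTP and RCC1; the record marks most hits as doubtful in a second field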
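Quantitative HTS using a FRET biosensor: 0.1 uM Rango, 0.25 uM importin beta, 0.6 uM Ran, 2 mM GTP, 0.2 uM RCC1 final, PBS with DTT, Tween-20 and BSA. Post-read taken 45 min after Ran addition.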
GLA inh pH 4.5: alpha-galactosidase A (human) inhibition, pH 4.5. P06280. purified enzyme, 4-MU-alpha-Gal fluorescence, pH 4.5. activity change, negative = inhibition, % at 105 µM. 230,000 tested, under 10 active; inconclusive = small, poorly fitted or top-dose-only inhibition, or a rising curve; inactive = flat fitted curve, though single readings scatter; no compound was filed as active;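 further: 0% = full activity with enzyme and -100% = basal without enzyme; dose as in the result columns while the protocol names 77 µM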
miR-21 FLuc: raises the signal of a miR-21 reporter; Potency, µM (highest dose often 38.3 µM), inactives show at the top dose reporter change, positive = more light; HeLa miR-21 FLuc reporter, luciferase, 48 h; AID 2288; 340,000 tested, under 10 active; active = well fitted rising curve with a large enough effect; inconclusive = small, poorly fitted or top-dose-only effect; inactive = no such curve, though single readings can be large or run the other way;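 further: % of control where 0% means no effect; miR-21 action dims this reporter so a rising signal means less miR-21 action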
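Using DMEM plus 10% FBS, HeLa miR-21-FLuc cells are incubated with test compounds (final up to about 40uM) for 48 hours; firefly luciferase signal is then imaged following reagent-mediated lysis.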
Rango-impB inh: prevents formation of the Rango-importin beta complex; Q14974; Rango CFP/YFP FRET sensor + importin beta, 45 min; Potency, µM (titrated, usually from 92.2 µM), for inactives: at the highest dose inhibition of complex formation; 340,000 compounds, 0.031% hits; active = rising FRET ratio curve, often small or poorly fitted; inconclusive = mostly compound fluorescence or quenching in the first reads; inactive = flat curves in all reads;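 further: potency means the concentration at half of the fitted maximal effect; 0% = DMSO wells and 100% = buffer wells lacking importin beta; nearly all actives have a fitted effect of over 15% in size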
Target sequence (Q14974 whole entry, looked up): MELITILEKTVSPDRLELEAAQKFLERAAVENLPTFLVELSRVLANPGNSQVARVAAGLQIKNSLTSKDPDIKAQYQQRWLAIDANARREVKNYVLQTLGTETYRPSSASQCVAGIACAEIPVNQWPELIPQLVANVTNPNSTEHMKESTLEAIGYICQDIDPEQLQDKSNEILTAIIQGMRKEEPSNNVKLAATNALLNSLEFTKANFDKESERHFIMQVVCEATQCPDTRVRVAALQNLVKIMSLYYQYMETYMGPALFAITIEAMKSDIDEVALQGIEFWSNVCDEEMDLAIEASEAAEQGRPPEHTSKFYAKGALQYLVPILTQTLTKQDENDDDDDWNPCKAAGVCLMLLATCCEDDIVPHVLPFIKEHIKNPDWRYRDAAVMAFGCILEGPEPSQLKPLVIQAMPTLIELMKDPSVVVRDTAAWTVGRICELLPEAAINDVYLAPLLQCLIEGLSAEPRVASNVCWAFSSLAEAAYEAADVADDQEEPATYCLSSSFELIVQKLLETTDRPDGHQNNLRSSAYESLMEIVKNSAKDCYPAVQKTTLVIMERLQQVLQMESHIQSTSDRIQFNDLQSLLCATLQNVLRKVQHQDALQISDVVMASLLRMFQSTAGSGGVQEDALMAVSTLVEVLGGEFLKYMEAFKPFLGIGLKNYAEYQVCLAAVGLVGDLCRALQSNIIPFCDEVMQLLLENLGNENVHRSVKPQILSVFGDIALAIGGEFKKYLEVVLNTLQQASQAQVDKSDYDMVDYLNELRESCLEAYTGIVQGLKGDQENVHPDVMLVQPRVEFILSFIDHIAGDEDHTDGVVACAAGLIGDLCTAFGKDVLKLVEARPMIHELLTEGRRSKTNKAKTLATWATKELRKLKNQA
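Inhibition scored from the CFP 486 nm/YFP 530 nm FRET ratio 45 min after adding 0.125 microM importin beta to 50 nM Rango biosensor preincubated 5 min with compound (room temperature, PBS with DTT, Tween-20, BSA). No-importin wells as positive control.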
* marks the source's active call; other numbers are inactive results; ? = inconclusive; · = no result given. This is a subset (hit frequency here may not be typical).

SMILES | Rango release inh | GLA inh pH 4.5 | miR-21 FLuc | Rango-impB inh
CC(=O)c1ccc(NC(=O)C2CC(=O)N(Cc3ccccc3)C2)cc1 (stereo not given) | 2.4% | 2.7 | -48.0% | -0.7%
Cc1nc(N)sc1-c1csc(N(C)c2ccc(O)cc2)n1 | -3.5% | -18.4 | -55.7% | -3.9%
COc1ccc([N+](=O)[O-])cc1NC(=O)CSc1nc(C)c(C)c(C)n1 | 10.2% | -2.1 | -6.7% | -1.0%
Cc1ccc(N2CCN(C3=NC(=O)C(Cc4ccccc4)S3)CC2)cc1 (stereo not given) | -4.1% | 1.8 | 0.9% | -2.3%
C/C(=N\NC(=O)c1cccc(S(=O)(=O)Nc2ccc(C)cc2C)c1)c1ccncc1 | 0.1% | · | · | -0.8%
COc1ccc(C(=O)O)cc1S(=O)(=O)N(C)CCc1cccnc1 | 1.8% | 0.4 | 2.8% | 1.6%
CC(C)N(C)C(=O)c1ccc(OC2CCN(CCc3ccccc3)CC2)cc1 | -10.7% | -13.3 | -4.4% | 0.1%
Cc1ccccc1Cn1cc(S(=O)(=O)c2ccc(C(C)C)cc2)c(=O)c2cc3c(cc21)OCO3 | 0.8% | · | · | 1.8%
Cc1nn(-c2ccccc2)c(Cl)c1/C=N/NC(=O)CNC(=O)c1ccccc1Cl | -8.2% | -5.1 | 2.2% | ?
CN=C(Cc1ccccc1)C1=C(O)CC(C)(C)CC1=O | 11.2% | 13.5 | 0.3% | 0.2%
O=C(COc1ccc(Br)cc1)N1CCN(c2ccccc2)CC1 | -15.0% | 4.3 | -4.2% | 0.6%
Cc1ccccc1OCC(=O)NCc1ccccc1 | 1.3% | -6.8 | -23.4% | -6.0%
CCn1c(-c2cc3c(C(F)(F)F)nn(C)c3s2)n[nH]c1=S | 0.4% | 0.7 | -16.2% | 0.7%
CCOc1ccc(S(=O)(=O)N2CCN(Cc3ccco3)CC2)cc1 | -5.0% | · | -5.6% | -1.8%
C[C@H]1COC(=O)[C@H](Cc2ccc(F)cc2)C/C=C\C[C@@H](CC(=O)N(CCO)Cc2ccccc2)C(=O)N1 | 5.0% | · | · | 1.2%
NS(=O)(=O)c1ccc(NC(=O)CSc2ncn[nH]2)cc1 | -1.2% | -2.6 | 1.4% | -2.8%
COc1ccc(CNc2nc(-c3ccccc3)nn2C(=O)c2cccs2)cc1 | 1.9% | 7.1 | -6.4% | -0.8%
O=C(/C=C/c1ccoc1)c1ccccc1O | 4.4% | -8.1 | -12.6% | -0.4%
Cc1ccc(N2C(=O)N(CC(=O)Nc3c(C)cc(C)cc3Cl)C(=O)C2C)cc1 (stereo not given) | 1.8% | · | · | -0.5%
COC(=O)c1c(NC(=O)C2CC2)sc(C(=O)Nc2ccccc2)c1C | -0.6% | 1.6 | -41.0% | 0.1%
COc1ccc(N2C(=O)CC(N3CCC(O)(c4cccc(C(F)(F)F)c4)CC3)C2=O)cc1 (stereo not given) | 7.5% | -18.5 | -6.6% | 1.4%
CCOc1ccc(/C(O)=C2\C(=O)C(=O)N(c3ccc(OC)cc3)C2c2ccccc2[N+](=O)[O-])cc1 (stereo not given) | 1.1% | 5.4 | -32.7% | -1.5%
COc1ccc(CSc2n[nH]c(C)n2)cc1Br | 4.1% | 6.9 | -36.3% | 0.4%
CC(=O)c1c(N2CCN(C(=O)c3ccco3)CC2)nc(=S)n(-c2ccccc2)c1C | -0.3% | -2.3 | -3.8% | -4.4%
Cc1ccccc1OCCSc1nc2ncnc(N)c2[nH]1 | 0.4% | 4.9 | -3.0% | -3.6%
Cc1ccc(C2CC(=O)NC3=C2C(=O)CCC3)cc1Br (stereo not given) | 0.0% | 1.0 | 1.5% | 0.6%
CCn1c(C)nc2cc(C(=O)NN=Cc3ccccc3OC(F)F)ccc21 | -6.5% | · | · | -0.3%
O=C(Cn1cc(COc2ccc3ccc(=O)oc3c2)nn1)c1ccc(O)cc1 | -1.2% | · | · | -5.3%
CCc1nc(SCc2ccc(OC)cc2)n[nH]1 | -18.9% | · | -37.3% | 7.2%
CNC(=O)COC(=O)[C@@H](Nc1ccc(S(=O)(=O)N2CCOCC2)cc1[N+](=O)[O-])C(C)C | -11.0% | 4.5 | -4.5% | 5.1%
CC1(c2nnc(-c3ccc(Cl)cc3)o2)CC(c2ccc(Cl)cc2)=NO1 (stereo not given) | 11.1% | 8.1 | -1.1% | 0.1%
Cc1ccc(C)c(OCCC(=O)OCC(=O)NNC(=O)c2ccccc2)c1 | 15.8% | · | · | -0.6%
c1cc(CNC2=NCCCCC2)ccn1 | 2.6% | -8.1 | -1.9% | -0.8%
O=C(COC(=O)c1cc(Br)ccc1O)Nc1cccnc1Cl | -0.3% | · | · | ?
CC(=O)c1ccc(OC(C)C(=O)Nc2cccc(S(=O)(=O)NCc3ccco3)c2)cc1 (stereo not given) | -15.5% | · | · | 4.2%
CN(Cc1cn(C)nc1-c1cccc(Cl)c1)C1CCOCC1 | 6.8% | -3.6 | -2.6% | 2.4%
CN1CCN(NC(=O)c2cc(S(=O)(=O)Nc3ccc(Cl)cc3)ccc2Cl)CC1 | 1.6% | ? | -0.4% | -0.6%
CCSc1nc2c(sc3ccccc32)c(=O)n1C(C)C | 10.8% | 5.2 | 0.9% | 2.7%
CCCNC(=O)c1cc2c3ccccc3n(C)c2s1 | 1.5% | -3.5 | -13.7% | 3.5%
O=C(c1cc(-c2ccccc2)on1)N1CCN(C(=O)c2ccco2)CC1 | -1.4% | -3.8 | -28.0% | -2.7%
CC1(C)CC(=O)C2=C(C1)N(Cc1ccccc1)C(=O)C2(O)C(F)(F)F (stereo not given) | -19.7% | 10.6 | -2.8% | -3.5%
Cn1c(-c2ccc3c(c2)OCO3)cnc1NCc1ccccc1Cl | -11.5% | 7.1 | -37.7% | -0.1%
O=C(Nc1ccccn1)c1ccc(Cl)s1 | 0.8% | · | -37.8% | -1.1%
CCOc1cccc(NC(=O)C2CC(=O)N(C)C(=Nc3ccccc3)S2)c1 (stereo not given) | -5.9% | -8.7 | 7.7% | 0.1%
Cc1cccc(C)c1NC(=O)C1CCCN1C(=O)NCc1ccccc1 (stereo not given) | -1.3% | · | 5.5% | -5.7%
CCOC(=O)CSC1=C(C#N)C(c2ccc(C)cc2)C(C(=O)OC)C(=O)N1 (stereo not given) | 9.2% | 3.2 | -5.2% | -5.2%
COC1(c2ccccc2)NC(=S)NN=C1c1ccccc1 (stereo not given) | 3.9% | -18.2 | -1.6% | -0.2%
N#CCSc1nn(-c2ccc(F)cc2)c(=S)s1 | -9.7% | 3.2 | -7.6% | 1.5%
COc1ccc(C(=O)Nc2ccc(NC(C)=O)cc2)cc1S(=O)(=O)N1CCCCC1C (stereo not given) | -2.4% | · | · | -0.1%
Cc1ccc(S(=O)(=O)N2CCCC2)s1 | 1.3% | · | -1.1% | 2.9%

An excerpt from above in order of their number in Rango-impB inh, rising.
SMILES | Rango release inh | GLA inh pH 4.5 | miR-21 FLuc | Rango-impB inh
Cc1cccc(C)c1NC(=O)C1CCCN1C(=O)NCc1ccccc1 (stereo not given) | -1.3% | · | 5.5% | -5.7%
CC1(C)CC(=O)C2=C(C1)N(Cc1ccccc1)C(=O)C2(O)C(F)(F)F (stereo not given) | -19.7% | 10.6 | -2.8% | -3.5%
COC1(c2ccccc2)NC(=S)NN=C1c1ccccc1 (stereo not given) | 3.9% | -18.2 | -1.6% | -0.2%
N#CCSc1nn(-c2ccc(F)cc2)c(=S)s1 | -9.7% | 3.2 | -7.6% | 1.5%

The list goes on.
SMILES | Rango release inh | GLA inh pH 4.5 | miR-21 FLuc | Rango-impB inh
NC(N)=Nc1nc2ccc(Cl)cc2c(=O)[nH]1 | 3.3% | -2.0 | -1.0% | 0.8%
CC(=O)N1CCN(Cc2cc(=O)n3cc(Cl)c(C)c(Cl)c3n2)CC1 | -1.6% | 7.9 | -3.4% | -1.1%
O=C(N/N=C/c1ccc(N2CCCCC2)o1)c1ccccc1 | -14.7% | 0.7 | -14.9% | 1.6%
COc1ccc(CCNC(=O)c2ccc(=O)[nH]c2)cc1 | 9.1% | 1.2 | -0.5% | 2.4%
CCOC(=O)c1ccc(N2C(=O)CC(N3CCCC(C)C3)C2=O)cc1 (stereo not given) | 27.6% | -5.2 | 3.1% | -3.9%
COc1ccc(Cn2nnc3c(=O)[nH]c(C4CCN(C(=O)c5ccccc5Cl)CC4)nc32)cc1 | 2.4% | -20.2 | 2.8% | -2.9%
COc1cccc(S(=O)(=O)Nc2cccc(C(=O)N3CCOCC3)c2)c1 | 11.6% | 0.2 | -6.5% | 1.0%
NC(=O)C1CCCN(C(=O)c2ccc(Cl)c(S(=O)(=O)N3CCc4ccccc43)c2)C1 (stereo not given) | 0.7% | · | · | 0.6%
CC(=O)Nc1cccc(NC(=O)Nc2cccc3ccccc23)c1 | 19.4% | · | 2.3% | 0.5%
Cc1ccn2c(=O)nc(SCC(=O)NC3CCCC3)nc2c1 | 3.5% | · | · | ?
CC(=O)Nc1ccc(NC(=O)CSc2nc3c(=O)n(C)c(=O)n(C)c3n2C)cc1 | -2.3% | · | · | 0.1%
CCCCCn1c(CN2CCN(C(=O)OCC)CC2)nc2c1c(=O)[nH]c(=O)n2C | -17.9% | ? | -6.9% | 4.0%
COc1ccc(S(=O)(=O)N2CCCCC2)cc1NC(=O)C1CC(=O)N(Cc2ccccc2)C1 (stereo not given) | 6.8% | · | · | 5.3%
Cc1c(Cl)cn2c(=O)cc(CN3CCN(c4ccc(F)cc4)CC3)nc2c1Cl | · | 9.6 | -5.0% | ·
O=C(CNC(=S)NC(=O)c1ccccc1)c1ccccc1 | 0.4% | -3.1 | -49.4% | -1.3%
COc1ccc(C(=O)Nc2ccc(C(=O)NCCc3ccc(OC)c(OC)c3)cc2)cc1 | -3.4% | 3.5 | -24.6% | 4.5%
CCOc1ccccc1N1C(=O)c2ccc(C(=O)O)cc2C1=O | -6.2% | 1.9 | -1.9% | 0.2%
CC(C)CN(C(=O)CN1CCN(c2ccc([N+](=O)[O-])cc2)CC1)c1c(N)n(CC(C)C)c(=O)[nH]c1=O | 18.1% | -5.4 | 5.1% | 0.3%
Cc1cccc(C)c1NC(=O)Cn1nnc(-c2ccc(CN3CCC(C)CC3)cc2)n1 | -3.1% | -4.3 | -3.4% | -3.3%
COc1ccc(COC(=O)C2CC(=O)N(Cc3ccccc3)C2)cc1 (stereo not given) | -9.6% | · | · | 5.7%
O=C(O)CC/C(=C\c1ccccc1[N+](=O)[O-])c1nc2ccccc2s1 | 10.1% | -1.7 | -19.0% | -2.6%
Cc1cc(C(=O)OCC(=O)NC2CCCC2)c2ccccc2n1 | -9.8% | · | · | -0.6%
Cn1c(=O)n(CCN2CCOCC2)c(=O)c2c1nc1n2CCN1c1ccc(Oc2ccccc2)cc1 | -4.9% | 2.7 | -1.9% | -3.1%
COc1ccccc1NC(=O)CSc1nc2ccccc2c(=O)n1C | -20.7% | · | 4.2% | -0.8%
CC1CCCC(NC(=O)CSc2cccc[n+]2[O-])C1C (stereo not given) | 16.2% | · | · | 1.9%
CC(=O)N1CCN(C(=O)c2ccc(NS(=O)(=O)c3ccc(Cl)c(Cl)c3)cc2)CC1 | -13.2% | · | · | ?
O=C1CCCC2=C1C1(CCCCC1)N=C(Nc1nc3ccccc3o1)N2 | -8.6% | 4.7 | -5.5% | 1.8%
CCOc1ccc2nc(N3CCCC(C(=O)NCC4CCCO4)C3)sc2c1 (stereo not given) | 18.4% | -6.7 | -11.0% | 2.2%
O=C(c1cnc2ccc3ccccc3c2c1)c1cc(F)ccc1O | -17.6% | -1.1 | -5.8% | 0.7%
O=[N+]([O-])c1cccnc1-n1cnc2ccccc21 | -19.5% | 5.4 | -4.5% | 4.8%
CNc1nc(-c2ccccn2)nnc1-c1ccccc1 | -2.6% | 7.7 | 4.8% | -1.4%
Cn1nccc1C(=O)Nc1cccc(S(=O)(=O)N2CCOCC2)c1 | 16.7% | · | -0.9% | 1.5%
CCOC(=O)c1[nH]c(C)c(C(=O)OCc2c(C)noc2C)c1C | 0.7% | 5.4 | 0.1% | -0.6%
